D2 potentiator: positive allosteric modulators of human D2 dopamine receptor; P14416; DiscoveRx D2 beta-arrestin cells, luminescence, 90 min; 100% = 57 uM dopamine signal; potentiation, % (no concentration beside the values); hit rate 0.23% among 360,000; AID 624464; active = potentiation of 50% or more; inconclusive = 30% to 50%; inactive = 30% or less;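 note: compound concentration not given in the record; tested on top of an EC20 dose of dopamine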
Target sequence (P14416 whole entry, looked up): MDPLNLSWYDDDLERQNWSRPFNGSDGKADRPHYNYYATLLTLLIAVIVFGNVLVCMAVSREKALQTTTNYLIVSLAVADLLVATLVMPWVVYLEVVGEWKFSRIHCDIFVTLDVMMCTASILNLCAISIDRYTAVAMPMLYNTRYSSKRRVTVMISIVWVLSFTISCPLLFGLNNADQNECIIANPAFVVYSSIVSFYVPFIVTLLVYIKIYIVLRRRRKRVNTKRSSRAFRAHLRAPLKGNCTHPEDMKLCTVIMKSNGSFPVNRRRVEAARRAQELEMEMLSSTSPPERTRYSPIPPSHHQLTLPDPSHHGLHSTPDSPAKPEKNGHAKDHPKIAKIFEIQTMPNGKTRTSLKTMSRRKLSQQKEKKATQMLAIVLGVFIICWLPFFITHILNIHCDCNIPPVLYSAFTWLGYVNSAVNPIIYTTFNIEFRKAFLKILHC
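D2 cells co-treated with compound plus 50 nM dopamine (EC20) for 90 min at 37 deg C to detect potentiation. Beta-arrestin recruitment was read as enzyme-fragment luminescence after 1 h at ambient temperature. Full response was set by 57 uM dopamine.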
gsp agonist: activates gsp, the McCune-Albright syndrome mutation | gsp mutant cells, cAMP HTRF, 30 min; control for the full effect not named in the record | Potency, µM (highest dose often 76.9 µM), for the others: top-dose activation (cAMP increase), usual class: activators | hit rate 0.13% among 340,000 | AID 624287; active = well fitted activation curve with a large enough effect; inconclusive = small, poorly fitted or top-dose-only effect, or another doubt; inactive = no such curve, though single readings can be large or run the other way; cell line not stated here;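 note: phosphodiesterase inhibitor Ro 20-1724 added with compounds to block cAMP breakdown; potency is the fitted concentration of half-maximal effect; nearly all actives have a fitted effect of over 60% in size; about a fifth of the inactives were tested at one dose only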
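Cells stably selected in G418 were plated at 2000/well, grown 16-24 hr, then given compounds in DMSO with the PDE inhibitor […] (300 uM solution added) for 30 min at 37C; cAMP was read by HTRF.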
Six1-Eya2 blk: blocks human Six1 binding to Eya2; Q15475+O00167; AlphaScreen GST-Six1/His-Eya2 binding, biochemical; stronger effect = lower value; control for the full effect not named in the record; activity change, % (test concentration not listed); hit rate 0.56% among 360,000; AID 651725; in the data active = activity change below about -65%; inconclusive = about -30% to -65%; inactive = above about -30%; note: % is set by controls: 0 for no effect and ±100 for the full control effect; compound concentration not given in the record
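Homogeneous AlphaScreen proximity assay pairing GST-Six1 with His-tagged Eya2 (added as 5X mix: 250 nM and 500 nM) in 50 mM Tris pH 8.0, 300 mM NaCl, 1 mM TCEP. Glutathione donor and nickel acceptor beads; 1 h, 37 °C, dark.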
CtBP-E1A inh: blocks the CtBP interaction with E1A | AlphaScreen GST-E1A/His-CtBP binding, 1536-well; stronger effect = lower value; control for the full effect not named in the record | activity change, % (no concentration beside the values) | hit rate 0.49% among 340,000 | AID 651724; in the data active means activity change below about -65%; inconclusive means about -30% to -65%; inactive means above about -30%; note: % is set by controls: 0 for no effect and ±100 for the full control effect; compound concentration not given in the record
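GST-E1A and His-tagged CtBP (125 nM each as 5X stock) were preincubated with pin-transferred compound for 2 h at 37 °C in the dark, then glutathione donor and nickel acceptor beads were added for 1 h before AlphaScreen reading.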
gsp antag: antagonists of gsp mutant (McCune-Albright syndrome). gsp-mutant cells, cAMP HTRF, 30 min; control for the full effect not named in the record. Potency, µM (top dose mostly 76.9 µM), for inactives: at the highest dose activity change, negative = inhibition, actives largely listed as inhibitors. hit rate 0.4% among 340,000. AID 624288; active = falling curve of any shape with a large fitted effect; inconclusive = falling curve, mostly with a smaller effect; inactive = flat or rising curve; cell line not stated here;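 note: intracellular cAMP measured with PDE inhibitor Ro 20-1724 present during compound exposure; potency is the fitted concentration of half-maximal effect; % is set by controls: 0 for no effect and ±100 for the full control effect; nearly all actives have a fitted effect of over 65% in size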
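G418-selected cells were plated in DMEM/10% FBS for 16-24 h at 37C, then treated with compounds plus the PDE inhibitor […] (300 uM solution added) for 30 min at 37C. Intracellular cAMP was measured by HTRF after 30 min lysis at room temperature.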
D2 ag: activates the human D2 dopamine receptor; hit rate 0.084% among 360,000; P14416; DiscoveRx PathHunter D2 beta-arrestin, luminescence, 90 min; 100% = 57 uM dopamine signal; activation, % (concentration not given with the values); AID 624465; in the data active = activation above about 40%; inconclusive = about 15% to 40%; inactive = below about 15%; note: compound concentration not given in the record; the text of the record calls up to 30% inactive
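Agonist mode: compounds alone added to overnight-plated D2 PathHunter cells for 90 min at 37 C, with 57 uM final dopamine (EC100) defining full response. Beta-arrestin recruitment detected by chemiluminescent reagent, read after 1 h at ambient temperature.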
* = called active by the depositor; ? = inconclusive; / = not tested or not shown; [ ] = remark or other dose. Rows were taken by chance; overall some 1.4% were active at least once.

Below each SMILES – D2 potentiator	gsp agonist	Six1-Eya2 blk	CtBP-E1A inh	gsp antag	D2 ag
1. COc1ccc(N2CCN(C(=O)c3c(-c4c(F)cccc4Cl)noc3C)CC2)cc1
    19.7	-9.3%	-16.8	-3.1	-15.7%	-3.6
2. COc1ccccc1CCN=C(N)NS(=O)(=O)c1ccc(C)cc1
    -9.2	23.3%	1.8	/	-21.6%	-1.2
3. CCc1nnc(NS(=O)(=O)c2ccc(NC(=O)c3ccccc3O)cc2)s1
    4.4	?	-26.1	-16.1	-0.7%	-3.7
4. CCC(CC)c1nnc(NC(=O)C2COc3ccccc3O2)s1 (centres undefined)
    -1.3	27.3%	-0.5	4.4	-5.9%	0.3
5. O=C(OCc1cc(=O)n2cc(Br)ccc2n1)C1COc2ccccc2O1 (centres undefined)
    -14.5	10µM*	3.3	0.6	-3.8%	0.9
6. O=C1COc2ccc(C(=O)CSc3nnc(Cc4cccs4)n3-c3ccc(Cl)cc3)cc2N1
    6.9	-36.1%	-13.4	-5.1	-8.8%	1.2
7. CCOC(=O)c1sc(Nc2ccc(Br)cc2)nc1C
    -8.9	-0.2%[15.4 µM]	-5.0	-0.3	-7.8%	0.5
8. COC(=O)c1ccc(CNC(=O)COc2ccccc2Br)o1
    -10.1	-19.2%	-3.6	0.0	2.5%	-2.4
9. COc1ccc(-n2cnnc2SCC(=O)NC2CCCCC2)cc1
    -23.7	7.4%	6.5	-16.9	2.8%	2.5
10. C/C(=N\Nc1ccc(C(F)(F)F)cn1)c1ccncc1
    -18.0	-4.6%[15.4 µM]	-5.7	-18.0	0.8%	-8.0
11. Cc1cc(C)cc(CC(=O)N2CCC2(C)C(=O)NS(=O)(=O)c2ccccc2)c1 (centres undefined)
    2.4	/	2.6	8.7	/	5.8
12. CC1(C)CC(=O)C(C=NC(CCC(N)=O)C(=O)O)=C(O)C1 (centres undefined)
    -9.3	-15.2%	-1.3	12.0	-5.0%	-3.0
13. Cc1cn([C@H]2C[C@H](O)[C@@H](CCC(=O)NCc3cccc4ccccc34)O2)c(=O)[nH]c1=O
    -7.2	/	8.6	-6.9	/	-3.8
14. O=c1nc(-c2ccccc2)cc(C(F)(F)F)[nH]1
    -6.6	-9.3%	-8.1	11.3	-10.1%	-0.6
15. Cc1nc2ccc(S(=O)(=O)Nc3ccccc3C)cc2s1
    -7.1	-4.0%	1.0	-0.6	-7.5%	0.0
16. CCOc1ccc(CNC(=O)C(=O)c2cn(CC(=O)N3CCOCC3)c3ccccc23)cc1OC
    -4.8	3.7%[15.4 µM]	-17.8	-1.3	-18.2%	0.5
17. COc1ccc(OC)c(/C=C2\SC(=S)N(N3CCOCC3)C2=O)c1
    -11.4	23.3%	6.2	-12.4	1.4%	-8.2
18. CC1Sc2ccc(S(=O)(=O)N3CCC(C(=O)N(C)Cc4ccco4)CC3)cc2NC1=O (centres undefined)
    0.3	-14.1%	-5.5	0.7	-13.7%	-4.9
19. CN(CCOc1ccc(Br)cc1)CC(=O)Nc1cccc(S(=O)(=O)NC2=NCCC2)c1
    -2.6	-0.3%	-8.3	/	-8.4%	1.2
20. COc1ccccc1N(CC(=O)NC(C)(C)C)C(=O)C1CSC(=O)C1 (centres undefined)
    5.7	-55.0%[inhibitor]	4.1	14.2	2.8%	1.1

Entries of single compounds as entered above. Order of screens: D2 potentiator | gsp agonist | Six1-Eya2 blk | CtBP-E1A inh | gsp antag | D2 ag
Record of `CC1(C)CC(=O)C(C=NC(CCC(N)=O)C(=O)O)=C(O)C1` (centres undefined) : -9.3 | -15.2% | -1.3 | 12.0 | -5.0% | -3.0
Record of `COc1ccc(OC)c(/C=C2\SC(=S)N(N3CCOCC3)C2=O)c1` : -11.4 | 23.3% | 6.2 | -12.4 | 1.4% | -8.2

Next section:
Below each SMILES – D2 potentiator	gsp agonist	Six1-Eya2 blk	CtBP-E1A inh	gsp antag	D2 ag
21. COc1cc(/C=C2\C(=N)N3N=CSC3=NC2=O)ccc1OS(=O)(=O)c1ccccc1[N+](=O)[O-]
    -7.9	-6.5%[15.4 µM]	?	?	-11.3%	-0.6
22. CN(C)c1ccc(S(=O)(=O)N2CCCCC2)cc1NC(=O)CCNC(=O)c1ccco1
    -4.4	0.4%	3.7	/	-4.8%	-5.4
23. O=C(COc1ccc2ccc(=O)oc2c1)NC1CCN(Cc2ccccc2)CC1
    -38.8	14.6%	-0.4	-5.4	-9.0%	-8.2
24. COc1ccc(Nc2nc3cc(-c4ccsc4)sc3c(=O)n2C)cc1OC
    2.5	/	-18.2	-13.0	/	-2.4
25. Cc1cccc(N2C(=O)c3cccc4c(N)ccc(c34)C2=O)c1
    1.8	?	23.2	-2.8	-11.5%	4.2
26. Cc1sc2nc(SCC(=O)NCc3cccs3)[nH]c(=O)c2c1C
    1.6	1.2%	-0.6	-2.4	-6.0%	-2.0
27. CCn1c(=O)c2c(nc3n2CCCN3Cc2ccccc2)n(C)c1=O
    -8.9	20.5%	-8.4	/	-5.1%	-1.6
28. CC[C@@H](C)[C@H](CNC)NC[C@@H](Cc1cccc2ccccc12)NCCc1cccc(C(F)(F)F)c1
    -13.8	-64.3%[inhibitor]	0.2	-19.6	12.4%	-6.4
29. Nc1cc(N)nc(SCc2cc([N+](=O)[O-])cc3c2OCOC3)n1
    2.1	?	-3.1	4.1	4.7%	-4.1
30. COc1ccc(CNCCSc2nnnn2C)c(OC)c1OC
    -6.5	2.2%[15.4 µM]	8.5	4.8	-2.3%	-4.2
31. CCOC(=O)C1CCN(C(=O)C2(NC(=O)Nc3ccccc3Cl)CCCCC2)CC1
    -4.0	-16.2%	2.0	-2.1	-14.9%	-0.4
32. Cc1n[nH]c(C)c1S(=O)(=O)N1CCCC(C(=O)NCc2cccs2)C1 (centres undefined)
    -12.0	5.0%	1.9	4.3	2.3%	0.2
33. CCOC(=O)C1CCCN(C(=O)C2CCN(c3nnc(-n4cccc4)s3)CC2)C1 (centres undefined)
    -3.0	-30.1%[inhibitor]	-3.7	1.2	-8.2%	1.9
34. Cc1ccc(S(=O)(=O)N(CC(=O)N2CCCCCC2)c2ccccc2)cc1
    -12.5	-4.0%	1.7	0.7	-6.1%	-1.9
35. O=C(O)CC(NNC(=O)c1ccccc1)C(=O)Nc1ccc([N+](=O)[O-])cc1 (centres undefined)
    -12.3	-24.7%	-1.0	-0.9	4.4%	-1.6
36. Clc1ccc(-c2nc3cnccn3c2Nc2ccc3c(c2)OCO3)cc1
    1.6	?	-28.3	-19.9	-9.6%	7.2
37. Cc1nnc2ccc(N3CCC4(CC3)OCCO4)nn12
    7.8	?	2.9	4.5	4.2%	6.1
38. Cc1nn(C)c(C(=O)NNC(=O)NC2CCCCC2)c1Cl
    -1.7	19.8%	8.7	5.7	8.3%	2.7
39. O=S(=O)(NCC(c1cccnc1)N1CCN(Cc2ccccc2)CC1)c1ccc(F)cc1 (centres undefined)
    -11.0	-23.7%	4.2	0.0	2.2%	-2.4
40. CC(C)[C@@H](C(=O)O)N(Cc1cccc(CN([C@H](C(=O)O)C(C)C)S(C)(=O)=O)c1)S(C)(=O)=O
    -1.7	?	8.1	-15.5	8.5%	-3.0
41. Cc1nn(Cc2ccccc2)c(C)c1NC(=O)CSc1nnc(-c2cc(Cl)ccc2O)n1C
    -3.5	5.1%	?	6.2	-23.9%	-0.8
42. CC(=O)NC(=S)Nc1ccc(NC(=O)c2cccs2)cc1
    -2.1	6.7%	5.9	6.1	-7.7%	0.4
43. CC(C)c1nc(SCC(=O)N2CCc3ccccc32)n[nH]1
    -6.1	7.0%[15.4 µM]	27.0	1.6	0.4%	-1.6
44. Cc1ccc(CNc2oc(-c3ccco3)nc2S(=O)(=O)c2ccccc2)cc1
    -7.0	1.6%	-7.5	-8.1	-19.6%	-1.5
45. CC(C)c1ccc(N(CC(=O)NCC2CCCO2)C(=O)CCC(=O)Nc2nccs2)cc1 (centres undefined)
    -11.1	-0.3%[15.4 µM]	-3.0	3.6	5.8%	-0.3
46. O=C1c2ccccc2NC(c2c(Cl)cccc2Cl)N1Cc1ccccc1 (centres undefined)
    -34.8	12.5%	-0.4	-2.4	-10.5%	-4.0
47. CCCc1nnn(S(=O)(=O)c2ccc([N+](=O)[O-])cc2)c1CCC
    -5.2	0.3%	-0.1	3.7	12.3%	2.5
48. COc1ccc2c(c1)cc(C(=O)N[C@@H](Cc1ccccc1)C(=O)O)n2C
    -4.4	5.2%	-0.8	/	-2.6%	-7.3
49. COc1ccccc1C1=NOC(Cn2c(NCCCO)nc3c2c(=O)n(C)c(=O)n3C)C1 (centres undefined)
    -6.7	2.9%[15.4 µM]	2.2	0.0	-1.4%	-1.5
50. CCN(c1ccccc1)S(=O)(=O)c1ccc(OC)c(NC(=O)CNCC(C)O)c1 (centres undefined)
    -2.1	0.0%	5.7	0.5	3.3%	0.7
51. CCC(=O)Nc1cccc2c1C(=O)N(C)C2=O
    -7.1	1.0%	1.2	6.5	16.5%	-2.3
52. COc1ccc(-c2nnn(Cc3ccccc3F)n2)cc1
    -12.5	-0.9%	28.4	30.9	4.8%	-1.3
53. Cc1nn(CC(=O)NCCc2cccs2)c(=O)c2nn(-c3ccccc3)c(C)c12
    -18.0	?	-5.0	-19.8	-5.8%	-1.1
54. COC(=O)c1ccc(NC(=S)NC(=O)c2cccnc2)cc1
    -6.6	?	2.8	7.0	-7.7%	-6.7
55. C=CCOc1c(OC)cc(Cl)cc1C1NC(=O)NC(C)=C1C(C)=O (centres undefined)
    22.0	7.8%	-10.4	5.4	-11.8%	-2.6
56. Cc1c(OCC(=O)NC(Cc2ccc(Cl)cc2)C(=O)O)ccc2c(-c3ccccc3)cc(=O)oc12 (centres undefined)
    -4.8	/	-4.2	5.1	-5.8%	-6.2
57. Nc1c(-c2cccs2)cnc2c(-c3ccc(F)cc3)cnn12
    -2.6	-2.5%	3.9	19.9	-19.5%	0.6
58. Cc1cc(C)c(NC(=O)CS(=O)CC(=O)NCCN2CCCCCC2)c(C)c1 (centres undefined)
    -3.0	6.9%	-6.0	-23.8	12.9%	-1.6
59. COc1cc2cc3c(N)c(C(=O)NCc4ccco4)sc3nc2cc1OC
    0.4	?	?	?	-22.9%	2.1
60. Cc1ccc2c(c1)[nH]c1c(N3CCN(Cc4ccccc4)CC3)ncnc12
    -32.1	-0.1%	-5.2	4.0	?	2.2
61. CCOC(=O)c1ccccc1NS(=O)(=O)c1ccc(OC)cc1
    -8.3	-21.5%	11.8	16.3	5.1%	-2.0
62. CN1CC[n+]2c(CN3C(=O)c4ccccc4C3=O)csc21
    -2.7	28.7%	9.7	-4.8	1.1%	-1.3
63. CSc1nc(-c2ccccc2)[nH]c(=S)c1C(C)=O
    -4.0	14.8%	-2.0	4.8	-7.8%	-5.8
64. CC(C)CC(=O)N1CCN(Cc2cccc([N+](=O)[O-])c2)CC1
    -12.2	20.2%	6.7	-7.0	-0.2%	-3.8

Assay outcomes from PubChem BioAssay.
